NPYLR7 agonist: activates Aedes aegypti NPYLR7 receptor; HEK293T NPYLR7/Galpha15, GCaMP6s calcium fluorescence; activation, % at 10 µM; hit rate 0.15% among 270,000; AID 1259423; in the data active means activation above about 40%;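 further: 0% = vehicle and 100% = reference agonist at the receptor; some compounds past the cut are filed as inactive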
NPYLR7 agonist max-min: further read-out of NPYLR7 agonist, marked with its call; activation, %; measured here: Max-Min RFU normalised activation; some inactives read as strong as hits;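 span of the calcium signal over five minutes; 0% = vehicle and 100% = native peptide agonist; compound fluorescence can raise it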
* hit, by the source's call; & = joins results of further samples. The list is partial; count on the stated rates, not on these rows.

The line under a structure holds: NPYLR7 agonist, NPYLR7 agonist max-min
> COc1ccc(C(=O)NNC(=O)CNC(=O)c2ccc(C)s2)cc1OC
  1, 7
> COc1ccc(-c2noc(CN(C)CC3CCCCO3)n2)c(OC)c1OC (stereo not drawn)
  5, -4
> O=C(Cn1cnc2c(nnn2-c2ccc(Cl)cc2)c1=O)NCc1ccc2c(c1)OCO2
  0, -4
> COC(=O)CCC(=O)N1CCC(n2c(=O)oc3c(C)cc(C)cc32)CC1
  4, 3
> COc1ccc(CC2CCN(C(=O)Nc3ccc(OC)cc3)CC2)cc1
  1, 12
> O=c1oc2ccccc2cc1-c1nnc(Nc2ccccc2F)s1
  -8, -10
> Cc1ccc(C(=O)N2CCC(C3(Cc4cccc(F)c4)NC(=O)N(CC(C)C)C3=O)CC2)c(C)c1 (stereo not drawn)
  23, 8
> Cc1csc(SCC(=O)N(C)Cc2ccc(F)cc2)n1
  3, 0
> Cc1[nH]cnc1-c1nccn1CCc1cnn(-c2ccccc2)c1
  17, 5
> C=c1ccccc1=C1NN=C(c2nnn(-c3ccccc3C)c2C)O1
  1, 10
> CCC(NC(=O)C1(Nc2ccc(C)cc2)CCCC1)c1cnn(C)c1 (stereo not drawn)
  12&-2, -2&-2
> Cc1cccc(NC(=O)c2c(F)cccc2F)c1C(=O)N1CCC(C(N)=O)CC1
  16, 12
> Cc1ccccc1-n1c(SCc2ccc(C(=O)O)cc2)nnc1-c1ccc([N+](=O)[O-])cc1
  -1, -3
> Cc1[nH]n(-c2ccc([N+](=O)[O-])cc2)c(=O)c1[N+](=O)[O-]
  -3, -4
> Cc1ccc(CN(C(=O)c2cc(C(C)C)[nH]n2)C(C)C)s1
  2&9, 0&6
> CN(CCC(=O)Nc1cc(F)ccc1F)CCC1CCOCC1
  22, 11
> O=C(c1ccc(OC(F)(F)F)cc1)N1CCN(c2c(-c3ccccc3)cnc3ncnn23)CC1
  23, 16
> CNCc1nc2scc(-c3ccccc3)c2c(=O)[nH]1
  1, 12
> c1ccc(COCCN2CCCN3CCC[C@H]3C2)cc1
  -5, -6
> CC1C(=O)N(C)CCN1C(=O)c1ccc(Oc2ccccc2)o1 (stereo not drawn)
  2, 2
> CCOc1ccccc1-n1c(-c2ccccc2)cc(C(=O)N2CCN(CC)CC2)c1C
  15, 8
> Cc1ccn2c(NC(=O)C(C)C)c(-c3cccc(F)c3)nc2c1
  -8, -2
> O=C(CN1C(=O)C(=O)N(C2CCCC2)C1=O)NC1CCCCCC1
  0, 8
> O=C(O)CCc1ncc(-c2ccc(Cl)cc2Cl)o1
  -5, -3
> CCOC(=O)C1CCCN(CC(=O)N2N=C(c3ccc(C)cc3)CC2c2cc(C)ccc2C)C1 (stereo not drawn)
  -4, 3
> COc1ccc(-c2csc(NC(=O)c3cc(Cl)ccc3[N+](=O)[O-])n2)cc1
  -3, -6
> CN(Cc1ccon1)C(=O)c1ccccc1-c1nc(-c2ccccc2)no1
  3, 1
> COc1ccc(OC)c(S(=O)(=O)N2CCN(c3ccc(NC(=O)c4ccc(F)cc4)cn3)CC2)c1
  7, -1
> O=S(=O)(Cc1ccccc1)c1nnnn1-c1ccccc1
  18, 15
> CCN(CCc1nc2c(C)cccc2[nH]1)C(=O)c1nn(C)c2c1CCCC2
  5, -1

At a glance, part of the list above.
The line under a structure holds: NPYLR7 agonist, NPYLR7 agonist max-min
> CCOC(=O)C1CCCN(CC(=O)N2N=C(c3ccc(C)cc3)CC2c2cc(C)ccc2C)C1 (stereo not drawn)
  -4, 3
> COc1ccc(-c2csc(NC(=O)c3cc(Cl)ccc3[N+](=O)[O-])n2)cc1
  -3, -6
> CN(Cc1ccon1)C(=O)c1ccccc1-c1nc(-c2ccccc2)no1
  3, 1
> COc1ccc(OC)c(S(=O)(=O)N2CCN(c3ccc(NC(=O)c4ccc(F)cc4)cn3)CC2)c1
  7, -1
> O=S(=O)(Cc1ccccc1)c1nnnn1-c1ccccc1
  18, 15
> CCN(CCc1nc2c(C)cccc2[nH]1)C(=O)c1nn(C)c2c1CCCC2
  5, -1

Further compounds follow:
The line under a structure holds: NPYLR7 agonist, NPYLR7 agonist max-min
> CC(C)CCCC1CN(C(=O)CCn2cncn2)CCO1 (stereo not drawn)
  5, 2
> CCCn1c(Br)nc2c1c(=O)n(C)c(=O)n2C
  -5, -5
> O=C(Nc1ccc(N2CCN(C(=O)c3ccc(OC(F)F)cc3)CC2)nc1)c1ccco1
  -2, 10
> CCCOc1ccc(C(=O)NCC2COc3ccccc3O2)cc1 (stereo not drawn)
  -10, -15
> CC(C)NC(=O)Cn1cnc2cc(-c3ccc(Cl)cc3)sc2c1=O
  3, 2
> CC(C#N)c1cccc(C(=O)N2CCN(Cc3ccc(-c4noc(-c5cccc(C(F)(F)F)c5)n4)cc3)CC2)c1 (stereo not drawn)
  2, -4
> Cc1ccccc1C(=O)Nc1sc2c(c1C(=O)N1CCN(C)CC1)CCC2
  6, 4
> CC1(C)CC2(C)CC3=C([C@H](CO)C(C)(C)C3)C(CO)(C1)C2 (stereo partly drawn)
  6, 3
> COCCn1cc(NC(=O)NCc2ccc(F)cc2)c2ccccc21
  13, 4
> C=CCN(C(=O)COc1ccc(C(N)=O)cc1)c1ccccc1
  5, 2
> Cc1cccc(C2=NOC(C)C(=O)N2Cc2cccc(F)c2)c1 (stereo not drawn)
  5, 4
> O=C(NC1CC1)C(c1ccccc1)N1C(=O)CSC1c1ccc(F)cc1 (stereo not drawn)
  30, 34
> COC(=O)C1=C(C)N(C)C(C)=C(C(=O)OC)C1c1ccc(-c2ccccc2)cc1
  -11, -11
> CCOC(=O)c1cc(-c2ccc(N3CCN(C(=O)Cc4cccs4)CC3)cc2)n(-c2ccc(OC)cc2)n1
  18, 17
> N#Cc1cccc(NC(=O)Cc2ccc3c(c2)OCCO3)c1
  -9, -10
> CC1CNCC(C)N1C(=O)OCc1ccccc1 (stereo not drawn)
  4, -1
> O=C(CCl)N1CCN(c2nc(Cc3ccccc3)nc3c2cnn3-c2ccccc2)CC1
  12, 9
> COC(=O)CCc1c(C)nc2c(c(C)nn2C2CCS(=O)(=O)C2)c1C (stereo not drawn)
  12, 8
> COc1ccc(N2C(=O)CSC2c2cccc(NS(=O)(=O)c3c(C)cc(C)cc3C)c2)cc1 (stereo not drawn)
  14, 14
> CCCCCC(=O)Nc1ccc(N2CCC(Cc3ccccc3)CC2)c(C(=O)NCCCN2CCOCC2)c1
  -9, 4
> O=S(=O)(c1ccc(OC(F)(F)F)cc1)N1CCCC1c1ccc[nH]1 (stereo not drawn)
  7, 6
> CS(=O)(=O)c1ccccc1S(=O)(=O)N1CCN(CCCOC(c2ccc(Cl)cc2)c2ccc(Cl)cc2)CC1
  1, 10
> Cc1ccc(C(=O)Nc2cccc(F)c2)cc1S(=O)(=O)Nc1cccc(F)c1
  -1, -5
> CCCc1cnc(C)nc1-c1ccc(O)cc1
  3, 2
> CCOCCOc1nc(-c2ccc(OC)cc2)n(-c2ccc(NC(=O)Nc3cccc(Cl)c3)cc2)n1
  3, 6
> O=C1NCCCCC1Sc1nnc(-c2c[nH]c3ccccc23)n1C1CC1 (stereo not drawn)
  12, 4
> CCC1CN(CCNC(=O)Cn2nc3ccccc3n2)Cc2cc(OC)ccc2O1 (stereo not drawn)
  3, -1
> c1ccc(-c2cc(-c3nnc(SCc4cccc(-n5cccc5)c4)n3CC3CCCO3)c3ccccc3n2)cc1 (stereo not drawn)
  0, 10
> O=C(C1CCN(S(=O)(=O)c2ccccc2)CC1)N1CCN(Cc2ccncc2)CC1
  1, 8
> CC1Oc2ccc(OC(F)(F)F)cc2N(c2cccc(O)c2)C1=O (stereo not drawn)
  7, 7

Part of the list above in order of length of the SMILES, lowest first.
The line under a structure holds: NPYLR7 agonist, NPYLR7 agonist max-min
> CC1CNCC(C)N1C(=O)OCc1ccccc1 (stereo not drawn)
  4, -1
> CCCn1c(Br)nc2c1c(=O)n(C)c(=O)n2C
  -5, -5
> O=C(C1CCN(S(=O)(=O)c2ccccc2)CC1)N1CCN(Cc2ccncc2)CC1
  1, 8

Later entries:
The line under a structure holds: NPYLR7 agonist, NPYLR7 agonist max-min
> Cc1ccc(F)c(-n2nnnc2CN2CCN(CC(C)O)C(C)C2)c1 (stereo not drawn)
  0, -3
> Cc1noc(-c2ccccc2Cl)c1C(=O)NCCCc1ccccc1
  -3, 1
> Cc1ccc(CN(CC(O)COCc2ccccc2)CC2CCCO2)c(C)c1 (stereo not drawn)
  23, 30
> Cc1cc(=O)[nH]c(-n2nc(-c3cccs3)cc2NC(=O)C(C)(C)Oc2ccc(Cl)cc2)n1
  1, 1
> Cc1nn(CC(=O)NC(=O)c2cccn2C)c(C)c1[N+](=O)[O-]
  2, 21
> Cc1c(Cl)ccc2sc(N(CCN3CCOCC3)C(=O)c3ccco3)nc12
  10, 4
> COc1ccc(C2=NOC(CN(Cc3ccccc3Cl)C(=O)c3cccc(F)c3)C2)cc1 (stereo not drawn)
  19, 32
> CCOC(=O)C(Cc1ccccc1)N(C(=O)c1ccoc1)C1CC1 (stereo not drawn)
  6, 2
> N#CC1(NC(=O)c2ccc(NC(=O)Nc3ccccc3)s2)CC1
  0, 2
> COCCn1c(N)c(C(=O)CCl)c(=O)[nH]c1=O
  9, 7
> N[C@@H](Cc1cnc[nH]1)C(=O)N1C[C@@H]2[C@@H]3CC[C@@H](C3)[C@@H]2C1
  8, 7
> CC(NC(=O)/C=C/c1ccc(Cl)c(C(F)(F)F)c1)c1nnc2n1CCC2 (stereo not drawn)
  -1, -1
> COc1ccc(S(=O)(=O)N(CCN(C)C)Cc2nccn2Cc2ccc(Cl)cc2Cl)cc1
  -1, 0
> CN(CCn1cccn1)c1nccc(N2CCC(O)CC2)n1
  0, -7
> Cc1ccc2c(C)c(C(=O)N3CCCC4(CC3)CNC(=O)O4)oc2c1 (stereo not drawn)
  6, 6
> Cc1cc2nc3c(=O)[nH]c(=O)nc-3n(C[C@H](O)[C@H](O)[C@H](O)CO)c2cc1C
  71*, 64*
> N#CC(=Cc1ccc(O)cc1)c1ccc([N+](=O)[O-])cc1
  -11, -12
> Cc1cc(C)c2sc(N(Cc3ccccn3)C(=O)C3CCCN3S(C)(=O)=O)nc2c1 (stereo not drawn)
  -1, -3
> O=C(NC1(C(F)(F)F)NC(=O)N(C2CCCC2)C1=O)c1ccccc1 (stereo not drawn)
  31, 21
> O=C(C1COc2ccccc2O1)N(Cc1cccnc1)c1nc2c(F)cccc2s1 (stereo not drawn)
  -7, -7
> C=C(C)Cn1c(=O)c2c(nc3n2CC(C)CN3c2ccc(CC)cc2)n(C)c1=O (stereo not drawn)
  2, 0
> Cc1ccc([N+](=O)[O-])c(OCCn2cnc3ccccc32)c1
  5, 2
> Cc1nc(CC(=O)NC2CC(=O)N(Cc3ccc(F)cc3)C2)cs1 (stereo not drawn)
  0, -2
> COc1ccccc1-c1cc(C(=O)Nc2ccc(F)cc2)nc2c(-c3ccccc3)c(C)nn12
  21, 15
> O=C(NC1CCCc2ccccc21)c1cc2n(n1)CCN(Cc1ccccc1)C2=O (stereo not drawn)
  1, -5
> CC1=NNc2nc3c(c(=O)n(Cc4cccc5ccccc45)c(=O)n3C)n2C1
  -18, -17
> Cc1noc(C)c1S(=O)(=O)N1CCCN(C(C)c2nc(N)nc(N(C)C)n2)CC1 (stereo not drawn)
  6, 5
> CCOc1ccc(OCCON=c2c(C)nc3ccccc3nc2C)cc1
  -1, 22
> CCc1ocnc1C(=O)N1CCC2(CCCN(CCc3ccccc3)C2)C1 (stereo not drawn)
  -2, -5
> CCCCC(C(=O)O)N1CCCS1(=O)=O (stereo not drawn)
  -2, -6
> CN(C(=O)Cc1cccc2ccccc12)C1CCS(=O)(=O)C1 (stereo not drawn)
  -3, -5
> Cc1ccc(S(=O)(=O)Nc2cccc([N+](=O)[O-])c2)cc1C
  6, 1
> O=C(Cc1cnn(-c2ccccc2)c1)OCc1cc(=O)n2cc(Cl)ccc2n1
  4, 2
> CC1CCCCC1NC1c2ccccc2-c2ccccc21 (stereo not drawn)
  1, 1
> CCN(C(=O)CCN1CCC(N2CCCC2=O)CC1)c1ccccc1
  6, 3
> C=CCSc1nc2c(c(=O)[nH]c(=O)n2C)n1CCC(C)C
  6, 1
> OC(CN(Cc1cccc(Cl)c1)CC1CC(c2ccccc2F)=NO1)c1ccccc1 (stereo not drawn)
  2, 9
> COc1ccc(CCN(C)S(=O)(=O)c2ccc(OC)c(N3CCN(C(=O)CCCl)CC3)c2)cc1OC
  4, 1
> CCc1c(C)nn(CCNc2nc(C3CCCC3)nc3c2CNC3)c1C
  -1, 8
> CNS(=O)(=O)c1ccccc1N1CCN(c2ccc(C)cn2)CC1
  4&3, 4&2
> COc1cc(C#N)ccc1OCC(=O)c1ccccc1
  -1, 0
> CC(=O)Nc1cc(NC(C)=O)cc(-c2nc(C)nn2-c2ccc(F)cc2)c1
  -3, -9
> O=C(NCCN1CCOCC1)c1csc(COc2cccc3ccccc23)n1
  -5, -3
> CC1=NNc2nc3c(c(=O)n(Cc4ccccc4C)c(=O)n3C)n2C1
  4, 4
> O=c1[nH]cc(S(=O)(=O)NC2CC2)c(=O)[nH]1
  -8, -14
> Cc1ccc(OCCNC(=O)c2[nH]c3c(c2C)C(=O)CCC3)c(C)c1
  2, 1
> CSc1nnc(SCC(=O)NC(C)C23CC4CC(CC(C4)C2)C3)s1 (stereo not drawn)
  8, 4
> CCC(C)OC(=O)C1=C(C)NC2=C(C(=O)CC(c3ccccc3)C2)C1c1ccc([N+](=O)[O-])cc1 (stereo not drawn)
  9, 6
> CCc1nccn1CC(=O)N[C@H]1C[C@@H](C(=O)OC)N(C)C1
  18, 11
> O=C1CCC(C(=O)N2CCS(=O)(=O)CC2)CN1Cc1cccc(F)c1 (stereo not drawn)
  6, 3
> O=C(CC(c1ccccc1)c1ccccc1Cl)N1CCC(N2CCCC2)CC1 (stereo not drawn)
  7, 4
> COc1ccc(S(=O)(=O)N2CCC(Cc3ccccc3)CC2)cc1N1CCN(C(=O)/C=C/c2ccccc2)CC1
  19, 4

Bioassay records (PubChem)
